# High-throughput results as filed in PubChem.
# RE007 growth inh: qHTS Assay for Inhibitors of the HIV-1 protein Vpr | S. pombe RE007 Vpr strain, BacTiter-Glo ATP luminescence, 24 h; control for the full effect not named in the record | Potency, µM (top dose mostly 92.2 µM), without a hit: at the highest dose activity change, negative = less growth | 0.21% of 360,000 active; active = well fitted falling curve with a large enough effect; inconclusive = small, poorly fitted or top-dose-only effect; inactive = no such curve, though single readings can be large or run the other way;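 also: % is scaled to controls: 0 for no effect and ±100 for the full control effect; nearly all actives have a fitted effect of over 50% in size; the assay follows cell death caused by Vpr and the record does not say whether a fall means rescue or toxicity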
#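 Fission yeast strain RE007, carrying one chromosomally integrated HIV-1 vpr copy, was seeded at OD 0.01 in PMG+AL medium with 23 nL pinned compound. After 24 h at 30 °C and 99% humidity, viability was read by BacTiter-Glo luminescence.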
# 2A StopGo: High Throughput Screening for Foot and Mouth Disease Virus Antivirals; human cells with a luciferase reporter of 2A StopGo recoding; control for the full effect not named in the record; Potency, µM (top dose mostly 57.9 µM), for inactives: top-dose signal change, negative = less light; 1.2% of 410,000 active; AID 1159524, 2015; active = well fitted falling curve with a large enough effect; inconclusive = small, poorly fitted or top-dose-only effect; inactive = no such curve, though single readings can be large or run the other way; tested in HEK293T cells; also: % is scaled to controls: 0 for no effect and ±100 for the full control effect; nearly all actives have a fitted effect of over 45% in size; luciferase light after 4 h
# NS1 function inh: qHTS Assay for Inhibitors of Influenza NS1 Protein Function; S. cerevisiae slowed by influenza A NS1, growth recovery by OD600; Potency, µM (series often up to 46.1 µM), for the others: at the highest dose activity, positive = more growth; 0.4% of 270,000 active; AID 2326, 2010; also: actives are rising curves; nearly all actives have a fitted effect of over 50% in size
#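 In this qHTS, NS1 from influenza A is expressed in budding yeast, where it slows growth. Cells are switched from glucose to 2% galactose medium (pH 6.0, -URA), treated with compound, and growth recovery is read at OD600.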
# Cruzain noTriton: qHTS Assay for Promiscuous and Specific Inhibitors of Cruzain (without detergent) | Cruzipain (Trypanosoma cruzi), P25779 | purified cruzain, Z-FR-AMC fluorescence, no detergent | Potency, µM, without a hit: max response, negative = inhibition, actives largely listed as inhibitors | 2.3% of 200,000 active; active = well fitted curve in the direction sought with a large enough effect; inconclusive = small, poorly fitted or top-dose-only effect, or another doubt; inactive = no such curve, though single readings can be large; an effect the other way counts as inactive or inconclusive;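 also: plate controls were enzyme without inhibitor for no effect and buffer without enzyme for full effect; nearly all actives have a fitted effect of over 40% in size; top concentration of the series not given in the record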
# Target sequence (P25779 123-467 limits assumed): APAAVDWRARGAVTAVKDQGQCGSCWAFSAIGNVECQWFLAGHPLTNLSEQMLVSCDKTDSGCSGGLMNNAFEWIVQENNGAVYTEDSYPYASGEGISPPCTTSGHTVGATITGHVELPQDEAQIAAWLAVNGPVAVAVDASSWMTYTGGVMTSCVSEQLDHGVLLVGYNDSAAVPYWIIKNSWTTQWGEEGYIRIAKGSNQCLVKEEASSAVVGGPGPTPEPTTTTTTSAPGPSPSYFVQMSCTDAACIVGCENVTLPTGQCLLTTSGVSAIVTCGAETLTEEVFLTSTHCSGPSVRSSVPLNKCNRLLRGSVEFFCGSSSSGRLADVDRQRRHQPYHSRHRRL
#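 Detergent-free condition (0.00005% Triton X-100) in acetate buffer pH 5.5 with DTT. 1.5 nM enzyme and compound were pre-mixed 15 min, then 2 uM Z-FR-AMC substrate added; reaction progress from fluorescence change between first and third reads (60 s).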
# LASV entry inh: qHTS for Inhibitors of binding or entry into cells for Lassa Virus; Lassa virus pseudotype entry inhibition, cell reporter; control for the full effect not named in the record; Potency, µM (top dose mostly 37.9 µM), inactives show at the highest dose activity change, negative = inhibition, actives largely listed as inhibitors; 1.2% of 300,000 active; active means well fitted inhibition curve with a large enough effect; inconclusive means small, poorly fitted or top-dose-only effect, or effect the other way; inactive means flat fitted curve, though single readings scatter; tested in HEK293 cells; also: % is scaled to controls: 0 for no effect and ±100 for the full control effect; nearly all actives have a fitted effect of over 50% in size; luciferase read-out
# SARS PLpro yeast: qHTS of Yeast-based Assay for SARS-CoV PLP; S. cerevisiae expressing SARS-CoV PLpro, growth rescue; control for the full effect not named in the record; Potency, µM (series often up to 32.9 µM), for inactives: top-dose activity, positive = growth rescue; 0.19% of 330,000 active; AID 485353, 2010; also: 0% is about no effect; nearly all actives have a fitted effect of over 55% in size; growth read by luminescence after 48 h
# Marburg entry inh: qHTS for inhibitors of binding or entry into cells for Marburg Virus | 1.8% of 300,000 active | Marburg virus pseudotyped entry inhibition, cell reporter; control for the full effect not named in the record; about a third of the inactives were read at about 46 µM | Potency, µM (doses to about 37.8 µM), inactives show at the highest dose activity change, negative = inhibition, actives largely listed as inhibitors; active = well fitted inhibition curve with a large enough effect; inconclusive = small, poorly fitted or top-dose-only effect, or effect the other way; inactive = flat fitted curve, though single readings scatter; tested in HEK293 cells; about a fifth of its hits are not listed in these tables; also: % is scaled to controls: 0 for no effect and ±100 for the full control effect; luciferase read-out
# Cruzain Triton: qHTS Assay for Promiscuous and Specific Inhibitors of Cruzain (with detergent); purified cruzain, Z-FR-AMC fluorescence, 0.01% Triton; Potency, µM, for the others: max response, negative = inhibition, most hits filed as inhibitors; 0.43% of 200,000 active; AID 1478, 2009; active = well fitted curve in the direction sought with a large enough effect; inconclusive = small, poorly fitted or top-dose-only effect, or another doubt; inactive = no such curve, though single readings can be large; an effect the other way counts as inactive or inconclusive;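 also: plate controls were neutral wells for no effect and buffer without enzyme for full effect; nearly all actives have a fitted effect of over 40% in size; top concentration of the series not given in the record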
#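 15 min RT preincubation of 1.5 nM cruzain with compound, then 2 uM Z-FR-AMC added; kinetic AMC fluorescence, 60 s delta. Triton X-100 0.01%, pH 5.5.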
# The depositor's hits bear a star; ? = inconclusive; · = no result given; & = joins results of further samples; [ ] = remark or other dose. Unless noted, calls follow the shape of the dose curve; as a rule, active means well fitted rising curve with a large enough effect; inconclusive means small, poorly fitted or top-dose-only effect; inactive means no such curve, though single readings can be large or run the other way. Potency is read from the fitted curve at half-maximal effect.
SMILES | RE007 growth inh | 2A StopGo | NS1 function inh | Cruzain noTriton | LASV entry inh | SARS PLpro yeast | Marburg entry inh | Cruzain Triton
Cc1ccc(NC(=O)C(=O)NCCCN2CC(C(=O)O)CC2=O)cc1 (configuration not stated) | 3% | -8% | 5% | · | 21%[46.1 µM] | 0% | 7%[46.1 µM] | ·
O=C(NCc1ccccn1)Nc1ccc(Cl)cc1 | 13% | 37%[activator] | · | · | 27%[46.1 µM] | · | -5%[46.1 µM] | ·
CC(C)c1ccc(N2CCN(C(=O)c3ccccc3NC(=O)/C=C\C(=O)O)CC2)cc1 | -30% | -22% | 4% | ? | -28% | -17% | 23% | 0.4%
COc1ccc2cc(C(=O)C3CCCN(C(=O)c4csnn4)C3)ccc2c1 (configuration not stated) | 1% | 1% | -10% | · | -23%[46.1 µM] | -2% | 2%[46.1 µM] | ·
c1ccc(CSc2ccc3nnc(-c4ccccn4)n3n2)cc1 | -5% | -23% | · | · | 4% | 4% | ? | ·
O=C(CN(CC1CCCO1)C(=O)CNS(=O)(=O)c1ccccc1)NCc1ccco1 (configuration not stated) | -5% | 3% | -1% | · | 2% | 0% | 17%[46.1 µM] | ·
N#C/C(=C\c1cc(Br)ccc1F)C(=O)NC1CC1 | -10% | ? | 10% | · | · | -2% | · | ·
CNC(=S)N(CCc1c(C)[nH]c2ccccc12)Cc1cc(OC)c(OC)c(OC)c1 | -5% | -14% | -12% | ? | ? | 7% | -7% | -1.3%
CCCCC(=O)N/N=C/c1c(O)n(CCCC)c(=S)[nH]c1=O | 29% | -9% | 0% | · | ? | 0% | -12% | ·
COc1ccc(CCNC(=O)CCCn2c(=O)c3ccccc3n(CC(=O)Nc3cc(Cl)ccc3C)c2=O)cc1OC | · | -23% | · | -1% | 9%[46.1 µM] | · | ? | -2.2%
N#C/C(C(=O)NCc1ccco1)=C1/SC(Cc2ccc(F)cc2)C(=O)N1c1ccccc1 (configuration not stated) | 11% | -8% | 19% | -16% | 0% | 11% | -4% | -0.8%
CCOC(=O)c1c(C)[nH]c(C)c1S(=O)(=O)NCC(=O)NCc1ccccc1C | · | -2% | · | 8% | 11%[46.1 µM] | · | · | 0.2%
Cc1nc(N)c(C#N)c(-c2ccccc2Cl)c1C | -9% | -8% | 2% | ? | -1% | 2% | -17% | 3.8%
COc1ccccc1CCNC(=O)C(=O)NCC1OCCN1S(=O)(=O)c1ccc(Cl)cc1 (configuration not stated) | 11% | ? | 9% | · | · | 2% | · | ·
O=C(C1CCN(Cc2ccc(F)cc2)CC1)N1CCN(C/C=C/c2ccccc2)CC1 | -29% | -11% | · | · | ? | -6% | ? | ·
CNC(=O)C1CCC(Cn2c(=O)c3sccc3n(CC(=O)N3CCCCC3C)c2=O)CC1 (configuration not stated) | · | -9% | · | -5% | 4%[46.1 µM] | · | · | -2.5%
CN1C(=O)N(c2cccc3ccccc23)C(n2cncn2)C1(C)C (configuration not stated) | 8% | 9% | 6% | 2% | 16% | 3% | 23% | 3.4%
Cc1ccc2c(c1)nnn2C1CCN(CC(=O)N2CCN(c3ccc(F)cc3)CC2)CC1 | -13% | -3% | -10% | 5% | · | -8% | 2% | 3.5%
CC(=O)Nc1c(Cl)cc2c(c1Cl)Cc1cc(N)ccc1-2 | -17% | 10% | · | · | 1% | · | 12% | ·
O=C(NCC(c1ccco1)N1CCc2ccccc21)c1ccccc1Cl (configuration not stated) | 15% | -14% | · | · | -17% | 6% | ? | ·
Cc1cccc(C(=O)Nc2ccc(S(=O)(=O)N3CCCCC3c3cccnc3)cc2)c1 (configuration not stated) | · | -20% | · | -2% | ? | · | · | -6.3%
O=C(O)c1cccc(S(=O)(=O)Nc2ccccc2Cl)c1 | 20% | 3% | 0% | ? | -5% | 9% | 5% | 5.4%
COc1ccc(CCNC(=O)CCc2ccccc2O)cc1OC | -1% | -18% | · | · | 14% | 1% | -7%[46.1 µM] | ·
COc1ccc(/C(N)=N/OC(=O)CC2CCCCC2)cc1 | -6% | 58%[activator] | -44% | · | -1% | 0% | -2% | ·
CC(CNC(=O)c1csc2c1CCCCC2)c1ccccc1 (configuration not stated) | · | 43%[activator] | · | 6% | · | · | ? | -6.1%
Nc1c(Cl)cc(-c2[nH]c3cc(C(=O)NCCO)ccc3c(=O)c2O)cc1Cl | -11% | 5% | -62% | · | · | ? | · | ·
COc1cc(NC(=O)c2ccc3c(c2)OCCO3)ccc1NC(=O)c1ccco1 | 7% | 0% | 4% | · | 1%[46.1 µM] | 1% | ? | ·
Cc1cccc(NC(=O)C2NC(=O)CC2c2ccccc2)c1C (configuration not stated) | 0% | -4% | -6% | -4% | · | 13% | 5% | 5.3%
CCn1nc(NS(=O)(=O)c2ccc(NC(C)=O)cc2)c2cc3cc(C)ccc3nc21 | 7% | 0% | 20% | · | ? | -2% | ? | ·
CCOC(=O)N1CCC(NS(=O)(=O)c2ccc(C)cc2)CC1 | 8% | -4% | -1% | · | -2% | 0% | 3% | ·
O=C(O)c1ccnc(C(=O)O)c1 | 8% | -20% | 4% | 6% | 21%[14.3 µM] | 1% | 17%&17% | 5.9%
Cc1c(C(=O)NCc2ccoc2)oc2ccc3c(c12)C(=O)CC(C)(C)O3 | 9% | 10% | -6% | ? | ? | -12% | ? | ?
COc1ccccc1C(=O)N1CCN(Cc2ccc3c(c2)OCO3)CC1 | 4% | 0% | 0% | -4% | 11% | -4% | -4%&-4% | 1.3%
Cc1ccc(OC(C)C(=O)N/N=C/c2ccccn2)cc1 (configuration not stated) | 4% | -18% | -1% | · | · | 0% | · | ·
O=C(NNC(=S)Nc1ccc(F)cc1)c1ccccc1OC(F)F | 5% | 23% | -2% | 7% | -4% | -4% | 2% | 1.9%
CCOC(=O)Cn1nc(C)c(NC(=O)COc2ccc(OC)cc2)c1C | -21% | ? | 0% | -8% | ? | 5% | 4%&17%[46.1 µM] | 1.9%
CC(=O)Nc1ccc(S(=O)(=O)NCC(=O)OCC(=O)N2CCc3ccccc32)cc1 | -18% | -19% | 15% | -23% | -5% | 18% | -4% | 5.8%
Cc1cccc(OCc2nnc(SCCC(=O)O)n2-c2ccccc2)c1 | 8% | -10% | 12% | · | · | 2% | · | ·
CCc1ccc(C2=NN(CCC(=O)NCCc3ccc(Cl)cc3)C(=O)CC2)cc1 | · | -15% | · | ? | -21%[46.1 µM] | · | · | -7.7%
COCCN1CCN(C(=O)c2cc(COc3ccc(F)cc3F)on2)CC1 | ? | -4% | 5% | · | ? | -2% | 22% | ·
O=C(Nc1cccnc1Cl)c1ccc(=O)oc1 | 16% | -18% | -4% | · | 6%[46.1 µM] | -1% | ? | ·
O=C(COc1ccc(S(=O)(=O)N2CCCC2)cc1Cl)NCc1ccc2c(c1)OCO2 | -7% | -12% | -13% | -17% | -1% | 5% | ? | 1.5%
Cc1ccc(CNC(=O)Cn2c(=O)n(Cc3ccc(F)cc3)c(=O)c3sc4ccccc4c32)cc1 | · | 0% | · | -13% | -15%[46.1 µM] | · | 1%[46.1 µM] | -1.0%
O=C(N/N=C/c1c[nH]c2ccccc12)c1cccc([N+](=O)[O-])c1 | 0% | -17% | 14% | 1% | 16% | -10% | ? | -12%
CCC1(c2ccccc2)NC(=O)N(CC(=O)NCc2ccc(F)cc2)C1=O (configuration not stated) | 2% | -2% | 3% | · | 2%[46.1 µM] | 9% | 2%[46.1 µM] | ·
O=C(NNS(=O)(=O)c1ccc(Cl)cc1)c1cccc(S(=O)(=O)N2CCOCC2)c1 | 9% | 79%[activator] | 3% | · | · | 2% | · | ·
CC(C)NC(=O)Nc1cccs1 | 1% | 0% | 8% | -7% | 0% | 14% | 1% | 0.1%
C=C1C(=O)O[C@H]2[C@H]1[C@@H](O)CC(=C)[C@@H]1CC(=O)[C@@H](C)[C@H]21 | 3% | 22µM* | 1% | · | ? | 0% | ? | ·
CC(C=Cc1ccccc1)=NNS(=O)(=O)c1ccc([N+](=O)[O-])cc1 | -23% | 19% | · | · | -17%[46.1 µM] | · | 6%[46.1 µM] | ·
O=C(Nc1cccs1)Nc1ccc(F)cc1F | -11% | 47%&46%[activator] | 2% | 7%&3% | ? | -2% | 12%[46.1 µM] | -6.4%&-5.1%
O=C(NCC(c1ccco1)S(=O)(=O)c1cccs1)c1ccccc1F (configuration not stated) | · | 14% | · | 0% | 11%[46.1 µM] | · | · | -1.3%
O=S(=O)(c1ccc(F)cc1)N1CCc2ccccc2C1 | 0% | 5% | -11% | · | -3% | 1% | -8% | ·
CCn1nnnc1SCC(=O)Nc1nc2ccc(OC)cc2s1 | -22% | 30% | -12% | -1% | -15% | 1% | 2%[46.1 µM] | -2.1%

# By substructure, the entries above containing a nitro group on carbon
SMILES | RE007 growth inh | 2A StopGo | NS1 function inh | Cruzain noTriton | LASV entry inh | SARS PLpro yeast | Marburg entry inh | Cruzain Triton
O=C(N/N=C/c1c[nH]c2ccccc12)c1cccc([N+](=O)[O-])c1 | 0% | -17% | 14% | 1% | 16% | -10% | ? | -12%
CC(C=Cc1ccccc1)=NNS(=O)(=O)c1ccc([N+](=O)[O-])cc1 | -23% | 19% | · | · | -17%[46.1 µM] | · | 6%[46.1 µM] | ·

# 3 entries out of the list, sorted by molecular weight, ascending:
SMILES | RE007 growth inh | 2A StopGo | NS1 function inh | Cruzain noTriton | LASV entry inh | SARS PLpro yeast | Marburg entry inh | Cruzain Triton
O=C(Nc1cccs1)Nc1ccc(F)cc1F | -11% | 47%&46%[activator] | 2% | 7%&3% | ? | -2% | 12%[46.1 µM] | -6.4%&-5.1%
CC(C=Cc1ccccc1)=NNS(=O)(=O)c1ccc([N+](=O)[O-])cc1 | -23% | 19% | · | · | -17%[46.1 µM] | · | 6%[46.1 µM] | ·
O=C(COc1ccc(S(=O)(=O)N2CCCC2)cc1Cl)NCc1ccc2c(c1)OCO2 | -7% | -12% | -13% | -17% | -1% | 5% | ? | 1.5%
